Sfp inh – inhibitors of Bacillus subtilis Sfp phosphopantetheinyl transferase. Q9F4F7. Biochemical Sfp PPTase activity, qHTS. Potency, µM, without a hit: max response, negative = inhibition, most hits filed as inhibitors. actives 3.5% (n = 310,000). AID 1490; active = well fitted inhibition curve with a large enough effect; inconclusive = small, poorly fitted or top-dose-only effect, or another doubt; inactive = no such curve, though single readings can be large or run the other way;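 also: the enzyme is Sfp with the accession as filed and its product quenches rhodamine fluorescence; potency is read from the fitted curve at half-maximal effect; 0% = enzyme reaction without inhibitor and -100% = no enzyme wells; top concentration of the series not given in the record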
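Buffer: 50 mM Hepes-Na pH 7.6, 10 mM MgCl2, 0.01% Nonidet P-40, 0.01% BSA. Enzyme 15 nM, pre-exposed to compound 15 min; substrates then added and fluorescence change tracked over 30 min.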
ClpP mod – qHTS Assay for Activators of ClpP. purified B. subtilis ClpP, FRET peptide cleavage, 20 min. Potency, µM (series often up to 57.5 µM), for the others: at the top dose activity change, negative = active. actives 1.9% (n = 340,000). AID 651965, 2013; active = well fitted falling curve with a large enough effect; inconclusive = small, poorly fitted or top-dose-only effect; inactive = no such curve, though single readings can be large or run the other way; also: potency is read from the fitted curve at half-maximal effect; the source files actives as falling curves though it sought activators and does not explain the sign; nearly all actives have a fitted effect of over 65% in size; many hits overshoot -100%
Target sequence (P80244 whole entry, looked up): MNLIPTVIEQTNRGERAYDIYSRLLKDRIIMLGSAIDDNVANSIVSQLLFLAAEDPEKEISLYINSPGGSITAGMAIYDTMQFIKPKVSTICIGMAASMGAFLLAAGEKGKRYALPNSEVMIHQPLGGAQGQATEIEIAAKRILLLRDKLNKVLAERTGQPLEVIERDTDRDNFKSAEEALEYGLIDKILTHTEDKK
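Purified B. subtilis ClpP, 10 microg/mL final in Tris/HCl pH8 with KCl, BSA, glycerol and Tween-20, cleaved an Abz/nitrotyrosine-quenched decapeptide. Fluorescence (ex 320, em 430) was read at 0 and 20 min at room temperature. Delta was normalized to 5.8 microM ADEP and DMSO/no-enzyme controls.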
TRPML1 ag – agonists of human TRPML1 channel; Q9GZU1; TRPML1-expressing cells, Ca2+ dye fluorescence, FDSS; host cell line not named in the record; reference of the full effect not given here; activation, % (test concentration not listed); actives 0.12% (n = 410,000); AID 624414; in the data active = activation above about 50%; inconclusive = about 30% to 50%; inactive = below about 30%; also: 0% is about no effect; the text of the record puts the active cut at 80%
Target sequence (Q9GZU1 whole entry, looked up): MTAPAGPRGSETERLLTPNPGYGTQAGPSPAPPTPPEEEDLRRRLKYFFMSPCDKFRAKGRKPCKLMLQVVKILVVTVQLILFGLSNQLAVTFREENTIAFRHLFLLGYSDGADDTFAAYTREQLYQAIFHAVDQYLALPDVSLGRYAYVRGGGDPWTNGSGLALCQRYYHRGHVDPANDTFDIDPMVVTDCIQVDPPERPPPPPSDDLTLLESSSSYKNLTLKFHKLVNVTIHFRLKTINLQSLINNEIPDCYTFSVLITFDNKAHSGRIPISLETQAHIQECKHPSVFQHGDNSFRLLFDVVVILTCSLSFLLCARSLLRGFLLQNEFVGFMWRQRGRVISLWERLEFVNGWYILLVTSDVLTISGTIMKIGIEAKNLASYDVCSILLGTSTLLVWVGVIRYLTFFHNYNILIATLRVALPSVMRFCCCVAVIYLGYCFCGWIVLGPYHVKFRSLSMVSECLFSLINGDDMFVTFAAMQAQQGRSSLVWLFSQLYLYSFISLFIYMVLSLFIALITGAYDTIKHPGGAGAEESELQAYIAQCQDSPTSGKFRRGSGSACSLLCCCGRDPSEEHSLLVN
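Calcium fluorescence on an FDSS kinetic reader gave the read-out. Tet-induced TRPML1-DL cells were plated overnight, dye-loaded (Ca8 with quencher, 45-90 min, room temperature, dark), then read 110 s after compound addition, and again 110 s after 4uM final 54-4 (EC80).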
TRPV1 PAM – potentiators of human vanilloid receptor 1 (TRPV1) | TRPV1-expressing cells, Fluo-8 calcium influx, capsaicin EC20 potentiation; host cell line not named in the record; control for the full effect not named in the record | Q8NER1 | potentiation, % at 8.33 µM | actives 0.02% (n = 320,000); active means potentiation above 80%; inconclusive means 30% to 80%; inactive means below 30%; also: 0% is about no effect
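TRPV1-expressing cells were cultured overnight at 35.5C and loaded with Fluo-8 calcium dye for 40 to 90 min at room temperature. After a 10 s baseline, compound was added and calcium influx was read kinetically for 3 min (ex 480/em 520 nm).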
PINK1 modulator – changes PINK1 expression; PINK1 immunofluorescence, high-content cytometry, 24 h; Potency, µM (top dose mostly 76.6 µM), without a hit: at the highest dose activation (PINK1 increase), most hits filed as activators; actives 0.2% (n = 410,000); active = well fitted activation curve with a large enough effect; inconclusive = small, poorly fitted or top-dose-only effect; inactive = flat fitted curve, though single readings scatter; cell line not stated here;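 also: potency is read from the fitted curve at half-maximal effect; % of control where 0% means no effect; nearly all actives have a fitted effect of over 65% in size; a mitochondrial uncoupler was the plate control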
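Stable cell line, 250 cells/well, 12 h attachment; compounds pinned at 5 concentrations, 24 h; CCCP control. Fixed with nuclear dye, primary antibodies 12 h at 10 degrees C, secondary plus cell stain; laser-scanning cytometer read.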
Menin-MLL FL inh – displaces fluorescein MLL peptide from human menin | AID 1766 | 290,000 tested, under 10 active | Fluorescence polarization, fluorescein-MLL peptide displacement from menin | FP activity change, % at 61.4 µM; inconclusive = falling polarisation curve, or a change in total fluorescence; inactive = total fluorescence flat and polarisation flat or rising; no compound was filed as active; the % refers to the polarisation; negative = inhibition;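 also: % of control where 0% means no effect; inhibitors lower the polarisation; unlabelled MLL peptide was the positive control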
TRPML1 blocker – inhibitors of human TRPML1 channel; Q9GZU1; actives 0.02% (n = 390,000); TRPML1-inducible cells, Ca2+ dye fluorescence, FDSS; stronger effect = lower value; inhibition of EC80 agonist-evoked calcium signal; activity change, negative = inhibition, % (test concentration not listed); in the data active means activity change below about -50%; inconclusive means about -30% to -50%; inactive means above about -30%;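 also: stimulus is agonist 54-4 at its EC80 concentration; % is scaled to controls: 0 for no effect and ±100 for the full control effect; compound concentration not given in the record; the text of the record puts the active cut at -80%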
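Tet-induced TRPML1-DL cells loaded with Ca8 no-wash calcium dye were read kinetically on FDSS. Compound addition was followed by EC80 agonist 54-4 (4 uM final); inhibition was read over 110 s.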
* hit, by the source's call; ? = inconclusive; . = not tested or not shown; & = joins results of further samples; [ ] = another dose, or the depositor's remark.

Each structure is followed by: PINK1 modulator, Sfp inh, TRPV1 PAM, TRPML1 blocker, Menin-MLL FL inh, ClpP mod, TRPML1 ag
1) Cc1ccc(-n2c(SCC(=O)OC(C)C)nnc2-c2ccncc2)cc1
    -2.7%, 19%, -3, 5, 4.0, -1.5%, -1.0
2) Cc1ccc(OCCSc2nc3ccccc3n2CC(=O)O)cc1
    0.5%, 12%, 7, 0, -2.8, -0.4%, 0.6
3) CC(=O)c1ccc(NC(=S)N2CCCC(CO)C2)cc1 (stereo not given)
    -0.8%, 10%, 2, -15, 6.3, -1.4%, -0.7
4) COc1cccc(NC(=O)CN(C)C(=O)C(CCSC)NC(=O)c2ccco2)c1 (stereo not given)
    -0.9%, ., 10, 21, ., -1.4%, 0.5
5) Cc1ccc(C)c(Cn2c3ccccc3c3cnn(CC(=O)NCCCN4CCCCC4)c(=O)c32)c1
    -1.7%, 5%, 19, 32, ., 3.9%, 0.3
6) O=C(NC1CCCCC1)c1ccc2c(c1)N(Cc1ccccc1)C(=O)c1ccccc1S2
    0.8%, ., ., 74, ., 0.4%, 0.3
7) Cc1cccc(-c2nnc(NC(=O)c3ccc(N4C(=O)CCC4=O)cc3)s2)c1
    -1.0%, 14%, 6, 11, 4.1, ?, 0.3
8) O=C(N/N=C/c1coc2ccccc2c1=O)c1cccc([N+](=O)[O-])c1
    -0.7%, 5%, -2, 3, -5.1, ., -0.5
9) CCC(C)(C(=O)NC1CCCCC1)N(C(=O)c1ccccn1)c1ccccc1 (stereo not given)
    -0.7%, 22%, 12, -2, 3.8, -0.3%, -0.9
10) Cc1ccc2c(c1)c1c(c(=O)n(-c3ccccc3)c(=O)n1CC(=O)NCC1CCCO1)n2C (stereo not given)
    1.8%&-0.8%, -10%, 2, 62&-9, ., 4.0%&4.1%, -1.0&-0.6
11) COc1ccc(NS(=O)(=O)c2cccc(C(=O)N3CCCCCC3)c2)cc1
    2.8%, ., 8, -4, ., 3.4%, 0.1
12) CCOC(=O)C1=C(C)OC(N)=C(C#N)C1c1ccsc1 (stereo not given)
    3.1%[38.3 µM], -2%, 8, 27, 4.2, 0.8%, 0.2
13) CCC(C)(C)n1nnnc1C(c1ccc(C)cc1)N1CCN(Cc2cccnc2)CC1 (stereo not given)
    1.4%, 10%, 5, 10, 1.6, -5.4%, 0.5
14) Cc1c(C(=O)N(C)CCC#N)oc2ccc(S(=O)(=O)N3CC(C)CC(C)C3)cc12 (stereo not given)
    2.0%, -2%, 10, 21, -2.6, -1.2%, 0.7
15) Cc1ccc(NC(=O)C(=O)NCC2(c3ccccc3)CCCC2)cc1Cl
    -1.3%, ., ., -2, ., -26%, -0.3
16) S=c1[nH]nc(-c2ccccc2)o1
    -0.9%, 8%, -2, 8, 7.1, -2.0%, -0.8
17) CCN(C(=O)COc1cc(OC)ccc1C(C)=O)C1CCS(=O)(=O)C1 (stereo not given)
    -0.5%, ., 1, 2, ., 2.1%, -1.1
18) CCCc1ccc(NC(=O)C2CCN(c3cnccn3)CC2)cc1
    3.3%&2.0%, 14%, -18, 7&60, ., ?, 0.3&0.2
19) Cc1cc(C)c(NC(=O)CS(=O)CC(=O)NCCN2CCCCCC2)c(C)c1 (stereo not given)
    -0.3%, 9%, -18, -9, 3.2, ., 1.2
20) COC(=O)C1=C(C)N(c2cc(C)cc(C)c2)/C(=C/c2ccco2)C1=O
    -1.4%, ?, -14, 7, 6.5, ., 7.8
21) CCOC(=O)c1cc(-c2ccccc2)n(-c2cccc(C(=O)NC(C)CC)c2)c1C (stereo not given)
    3.4%, ., ., 7, ., -10%, 8.9
22) COc1ccc(C(=O)NC(C)c2cccnc2)cc1S(=O)(=O)N(C)Cc1ccccc1 (stereo not given)
    0.8%, ., ., -7, ., -1.7%, 0.2
23) CCC(C)[C@H]1CNC(=O)C(=O)N1CCc1cccc(F)c1 (stereo not given in full)
    1.1%, ., ., ., ., -0.3%, -0.7
24) CC1C(=O)NN=C1C(=O)N/N=C/c1cccs1 (stereo not given)
    0.2%, -19%, -2, 0, -2.9, 0.0%, 1.1
25) CCCOc1ccc(C(=O)CCNc2ccc(C)c(Cl)c2)cc1
    -1.7%[38.3 µM], 26%, 4, -1, -1.4, -1.1%, 0.4
26) CC(=O)Nc1ccc(-n2nnnc2SCC(=O)NC2CCCC2)cc1
    3.4%, 3%, -1, -15, -2.3, ., -0.2
27) Cc1ccccc1CSc1nc2c(c(=O)[nH]1)CCCC2
    ., 26%, 14, ., 2.3, ., .
28) COC(Cn1c2c(c3cc(C)ccc31)CCCC2NCc1ccccc1)OC (stereo not given)
    ?, -13%, -6, 3, -4.8, -26%, 1.0
29) CCCS(=O)(=O)c1nc(S(=O)(=O)c2ccc(C)cc2)c(N2CCN(CCO)CC2)s1
    0.8%, 4%, 0, -1, ., 0.1%, -0.1
30) O=C(NCC1COc2ccccc2O1)C1CCCN(S(=O)(=O)c2cccc3cccnc23)C1 (stereo not given)
    -0.3%, -2%, ., 14, 5.7, -1.4%, 0.2
31) CCN1C(=O)N[C@@H](c2cccc(C(F)(F)F)c2)C(C(=O)OC)=C1C
    4.2%, 1%, ., -5, -1.9[11.7 µM], -0.6%, -0.3
32) O=C1C(Cl)=C(NC2CCCCC2)C(=O)N1Cc1ccccc1
    -0.6%, -23%, -6, 5, -5.9, ., 0.0
33) CC1CN(C(=O)N2CCC(C(=O)NC3CCCCCC3)CC2)c2cc(Cl)ccc2O1 (stereo not given)
    -0.8%, ., ., -1, ., 0.6%, -0.2
34) COc1ccc(Cl)cc1NC(=O)CN(C)CC(=O)Nc1ccccc1N1CCOCC1
    2.2%, 9%, 3, -2, 1.7, 0.1%, -0.4
35) OC1(c2ccc(Br)cc2)CN(c2ccccc2)C2=[N+]1CCS2 (stereo not given)
    3.1%, 6%, ?, 16, 0.4, ., -0.2
36) CS(=O)(=O)Nc1cccc(-c2cncnc2Nc2ccccc2)c1
    -1.0%, 0%, ., ., 6.5, ., .
37) CCCn1nnc(NC(=S)NC(=O)CC)n1
    0.6%, 40µM*, 13, 10, 2.0, 1.8%, 0.0
38) Cn1c(C(=O)N2CCCc3ccccc32)cc2c(=O)n3ccccc3nc21
    ., 1%, -3, ., -0.8, ., .
39) N#Cc1ccc(C(=O)OCC(=O)Nc2cccnc2Cl)cc1
    -0.3%, ., -6, -14, ., 2.2%, -0.2
40) COc1ccc(-c2cn3cccnc3n2)cc1NC(=O)c1c(F)cccc1F
    4.9%, ., ., 10, ., 4.6%, 0.5
41) CN1C(=O)Cc2cc(S(=O)(=O)CCC(=O)Nc3ccc(Cl)cc3)ccc21
    0.6%, ., ., -15, ., -4.6%, 0.7
42) CC(=O)Nc1cccc2cc(S(=O)(=O)O)ccc12
    -0.6%, ., ., ., ., -8.1%, -0.4
43) O=S(=O)(N/N=C\C=C\c1ccccc1)c1ccc(Cl)cc1
    13%[38.3 µM], 11%, -3, 13, -0.3, 1.3%, 1.0
44) CCCN1CCN(CCNC(=O)Nc2ccccc2Cl)CC1
    1.6%, 7%, 4, 11, -6.4, -0.1%, -0.3
45) O=C(Cn1cc(C(F)(F)F)ccc1=O)N/N=C/c1ccc(Cl)cc1Cl
    7.1%, 0%, -7, 18, -3.8, -1.6%, 1.5
46) Cc1ccccc1COC(=O)c1ccc(-c2nnn(Cc3ccccc3F)n2)cc1
    3.7%, ., ., -15, ., 0.0%, 3.4
47) CCCn1nc(C(=O)Nc2cc(S(=O)(=O)Nc3ccc(OC)cc3)ccc2O)c2ccccc2c1=O
    1.9%, ., ., 19, ., -1.6%, 0.8
48) Cc1cccc(C(=O)Nc2cccc(C(=O)OCc3cc(=O)n4ccsc4n3)c2)c1
    -1.1%, ., ., -7, ., -3.9%, -0.8
49) C/C(O)=C(\C#N)P(=O)(c1ccccc1)c1ccccc1
    0.4%, 5%, 11, -9, 1.4, 0.6%, -0.6
50) Cc1ccc(C(=O)NCCc2cccc(Cl)c2)cc1[N+](=O)[O-]
    2.1%, -2%, -16, -8, -3.3, -1.0%, 0.5
51) Cc1ccc(S(=O)(=O)Cc2ccc(C(=O)OCc3ccccc3)cc2)cc1
    5.3%, 11%, 5, -4, 0.8, 4.8%, 3.8
52) OCCn1c(C(F)(F)F)nc2ccccc21
    -0.3%[38.3 µM], -1%, -1, -4, 0.3, -0.4%, 0.9
53) CN1CCN(C(=O)CSc2nnc(COc3ccccc3)o2)CC1
    0.5%, -16%, 2, 8, -1.4, ., 0.8
54) Cc1ccc(-c2nnc(SCC(=O)NCCC(C)C)nc2-c2ccc(C)cc2)cc1
    -1.0%, ., ., 71, ., -1.5%, 2.4
55) Cc1ccc(S(=O)(=O)n2c(N)nc3ccccc32)cc1
    7.1%, 9%, -7, 9, -4.1, ., 0.5
56) O=C(O)CCC(=O)Nc1ccc(-c2nc3ccc(C(=O)c4ccccc4)cc3[nH]2)cc1
    0.1%, 25%, -3, -21, 0.5, -0.2%, -0.3
57) CCOc1ccc(N2C(=O)CC(NCCNc3ccc(C(=O)c4cccs4)cc3)C2=O)cc1 (stereo not given)
    2.9%, 8%, 12, 31, 0.5, -2.3%, -0.3
58) COC(=O)c1ccc2c(c1)N(Cc1nc(-c3ccc(Cl)cc3)oc1C)C(=O)C1CCCN21 (stereo not given)
    3.5%, ., ., 1, ., -12%, 0.6
59) COC(=O)Nc1sc2c(c1C(N)=O)CCCCCC2
    -1.3%, -84%, -3, -6, 0.1, -0.3%, -0.9
60) COc1ccccc1NC(=O)Cn1nc(C(F)(F)F)c2c1CCCC2
    ?, -14%, 4, 30, 2.3, 0.6%, 1.4
61) Cc1cc(C)c(C#N)c(OCC(=O)c2ccc(Br)cc2)n1
    4.6%[38.3 µM], -2%, 9, 30, -6.5, 0.8%, 3.0

Screens: PubChem BioAssay, National Center for Advancing Translational Sciences (NCATS)
